GIRK2 activ = opens human GIRK2 potassium channels. P48051. calls only for hits at 25 µM. HEK293-GIRK2 thallium flux, Thallos fluorescence. 63,000 tested, 0.05% active;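 active = among the strongest 0.2% of first-round signals and kept after retests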;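 also: first round at about 10 µM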
Target sequence (P48051 whole entry, looked up): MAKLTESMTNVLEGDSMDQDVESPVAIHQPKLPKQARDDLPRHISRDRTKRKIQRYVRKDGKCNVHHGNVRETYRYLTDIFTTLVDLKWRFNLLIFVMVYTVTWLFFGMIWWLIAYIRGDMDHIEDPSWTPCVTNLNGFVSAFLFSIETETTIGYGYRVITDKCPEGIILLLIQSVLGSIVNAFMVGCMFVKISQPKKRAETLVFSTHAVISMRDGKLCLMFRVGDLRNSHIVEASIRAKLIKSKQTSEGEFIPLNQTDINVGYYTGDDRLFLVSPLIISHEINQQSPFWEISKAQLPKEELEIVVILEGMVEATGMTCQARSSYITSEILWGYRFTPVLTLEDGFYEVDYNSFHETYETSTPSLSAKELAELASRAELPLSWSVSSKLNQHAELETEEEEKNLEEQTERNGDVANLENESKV
Calls only; i = inactive.

GIRK2 activ,compound
i,Cc1csc(COc2ccc(C(=O)Nc3ccccc3OC(F)(F)F)cc2)n1
i,COc1cccc2cc(C(=O)NCC3COC4(CCCCC4)O3)oc12 (configuration not stated)
i,COc1ccccc1OCC(=O)N1CCN(c2ncnc3c2nnn3-c2ccccc2)CC1
i,COc1ccc(-c2ccc(S(=O)(=O)O)cc2)cc1
i,COc1cccc(C(O)=C2C(=O)C(=O)N(c3ccccn3)C2c2cccc(Cl)c2)c1 (configuration not stated)
i,Cc1csc(NC(=O)CNC(=O)c2c[nH]c3ccccc23)n1
i,CC(C)C(=O)Nc1c(-c2ccccn2)nsc1C(=O)NCc1ccc(F)cc1Cl
i,O=c1c(=O)n(-c2ccccc2)ccn1Cc1cccc(C(F)(F)F)c1
i,O=C(/C=C/c1ccc2c(c1)OCO2)Nc1cc2c3c(c1)CCC(=O)N3CCC2
i,Cc1nnc(NC(=O)CN(C)c2nc3c(F)cccc3s2)s1
i,COc1ccc(/C=C/C(=O)O[C@H]2[C@H](O[C@H]3[C@@H]4C=CO[C@@H](O[C@@H]5O[C@H](CO)[C@@H](O)[C@H](O)[C@H]5O)[C@@H]4[C@@]4(CO)O[C@@H]34)O[C@@H](C)[C@H](O)[C@H]2OC(C)=O)cc1
i,Cc1ccc(N2CC(C)Cn3c2nc2c3c(=O)n(CCN3CCOCC3)c(=O)n2C)cc1 (configuration not stated)

Next section:
GIRK2 activ,compound
i,Cc1cccc(C(=O)NCCCS(=O)(=O)N2CCc3ccccc3C2)c1
i,O=C(NCC1(O)CCc2ccccc2C1)c1ccc(-c2ccccc2)cc1 (configuration not stated)
i,CC(=O)c1ccc(S(=O)(=O)N2CC(c3nc(-c4cccc(Cl)c4)no3)C2)cc1
i,CNc1cc(-c2ccccc2)nc2c(-c3ccccc3)c(C)nn12
i,O=C(/C=C/c1ccccc1)NC1CCCC(OC(=O)Nc2ccccc2)C1 (configuration not stated)
i,O=C(CCS(=O)(=O)c1ccccc1)NCCOc1ccc(-c2ccc(F)cc2)nn1
i,O=C(/C=C/c1ccc([N+](=O)[O-])cc1)N1CCc2cc(S(=O)(=O)NC3CCCC3)ccc21
i,Cc1cc(C)cc(-n2ccc(=O)c(-c3nc(-c4cccc(C(F)(F)F)c4)no3)n2)c1
i,Cc1cc(C)c(C)c(S(=O)(=O)NCC(=O)NCCc2ccccc2)c1C
i,CC(C)CCNC(=O)c1nnn(-c2ccc(Cl)cc2)c1-c1cccnc1
i,O=C(Nc1nc2c(s1)COCC2)c1ccc(-n2cccc2)cc1
i,COc1ccc(NC(=O)CSc2nccn2-c2cccc(C(=O)Nc3ccccc3)c2)cc1

(further entries)
GIRK2 activ,compound
i,COc1ccc(S(=O)(=O)NCC2(OC)CCSC2)cc1Cl (configuration not stated)
i,COc1ccccc1-n1ncc2c(C)nnc(SCC(=O)Nc3ccc(C(N)=O)cc3)c21
i,CCCCCCCCCCCCCCCCC(=O)NCCO
i,CS(=O)(=O)N1CCc2nc(NC(=O)Cc3ccccc3Cl)sc2C1
i,COC(=O)c1ccc(C(=O)NCC2(O)CCc3ccccc3C2)cc1 (configuration not stated)
i,COc1cccc(N2C(=O)C3N=NN(Cc4nc(-c5ccc(C)c(C)c5)no4)C3C2=O)c1 (configuration not stated)
i,COc1ccccc1C(=O)N1CCC(CSc2nccn2C)CC1
i,CS(=O)(=O)NCCOc1ccc2c(c1)OCO2
i,CCCCNC(=O)c1c(N)n(/N=C\c2ccco2)c2nc3ccccc3nc12
i,CCOC(=O)C1CCc2sc(NC(=O)CN(C)c3nc4c(C(F)(F)F)cccc4s3)nc21 (configuration not stated)
i,O=C(O)C1=C[C@@H](OC(=O)c2cc(O)c(O)c(O)c2)[C@@H](O)[C@H](OC(=O)c2cc(O)c(O)c(O)c2)C1
i,CS(=O)(=O)Nc1cccc(NC(=O)c2ccc(-n3cccc3)cc2)c1

The results go on:
GIRK2 activ,compound
i,CCOc1ccccc1NC(=O)C(C)Oc1cccc(Br)c1 (configuration not stated)
i,CN(C)CC#CCNC(=O)/C=C/c1ccc2c(c1)OCO2
i,O=C(CSc1nnc2scc(-c3ccc(Cl)cc3)n12)N1CCCCCC1
i,Cn1nc(CNC(=O)/C=C/c2ccco2)cc1-c1ccco1
i,O=C(Cn1c(=O)c2oc3ccccc3c2n(CC(=O)NC2CCCCC2)c1=O)NC1CC1
i,Cc1cc(C(=O)Nc2nc(C(=O)NCC(F)(F)F)co2)no1
i,Cc1cc(C)c(C)c(S(=O)(=O)NCC2CCCO2)c1C (configuration not stated)
i,Cc1ccc(C(O)=C2C(=O)C(=O)N(c3cc(C)on3)C2c2cccc([N+](=O)[O-])c2)cc1 (configuration not stated)
i,Cc1ccc(C)c(NC(=O)Cn2c(=O)n(Cc3cccs3)c(=O)c3ncccc32)c1
i,COc1ccc(N2CCCn3c2nc2c3c(=O)n(C/C=C/c3ccccc3)c(=O)n2C)cc1
i,O=C(c1cccs1)N1CCN(c2nc(N3CCOCC3)nc(-n3ccnc3)n2)CC1
i,O=C(O)CCCC(=O)Nc1ccc(Br)cc1-c1nc2ccccc2[nH]c1=O

Next section.
GIRK2 activ,compound
i,COc1ccc(C)cc1NC(=O)Cn1cccc(S(=O)(=O)N2CCOCC2)c1=O
i,O=S(=O)(NCc1ccco1)c1ccc(F)c(Cl)c1
i,COc1ccc(NC(=O)Nc2cnc(N3CCOCC3)nc2)c(C)c1
i,Cc1ccc(NC(=O)c2cn(CC(=O)Nc3ccccc3)c3nc(C)ccc3c2=O)cc1
i,CCc1nnc(C2CCN(C(=O)C(C)(C)C)CC2)s1
i,O=C(CN1CCN(c2ccccc2F)C1=O)NCCc1ccccc1
i,COC(=O)N1CCN(CCNC(=O)c2c(F)cccc2Cl)CC1
i,C[C@]12C=CC(=O)C=C1CC[C@@H]1[C@@H]2[C@@H](O)C[C@@]2(C)[C@H]1CC[C@]2(O)C(=O)CO
i,CCCCOc1ccc(C(=O)Nc2ccc3c(c2)C(=O)NCC3)cc1
i,Cc1cc(OCC(=O)Nc2cccc(C#N)c2)nc(N2CCC(C)CC2)n1
i,COc1ccc(N2C(=O)C3N=NN(CC(=O)Nc4ccc5c(c4)OCCO5)C3C2=O)cc1Cl (configuration not stated)
i,CCCn1c(=O)c2c(nc3n2CCN3c2cc(C)ccc2OC)n(C)c1=O

(further entries)
GIRK2 activ,compound
i,COc1ccc(S(=O)(=O)NCCNc2cc(Nc3ccccn3)ncn2)cc1Cl
i,Cc1ccccc1-n1c(=S)sc2c(=O)[nH]c(SCC(=O)NC(C)CCc3ccccc3)nc21 (configuration not stated)
i,COc1ccc(NC(=O)CSc2nnnn2-c2cccc(C)c2C)cc1OC
i,CCOc1ccc(C(=O)Nc2cccc(-n3c(C)nc4ccccc4c3=O)c2)cc1OCC
i,COc1ccc(N2C(=O)C3N=NN(Cc4cccc(F)c4)C3C2=O)cc1OC (configuration not stated)
i,O=C(Cn1cc(-c2ccc(F)cc2)cn1)N1CCN(C2CCCCC2)CC1
i,Cc1ccc(C)c(S(=O)(=O)c2cn(C)c3cc(N4CCCC(C)C4)c(F)cc3c2=O)c1 (configuration not stated)
i,Cc1ccc(CNC(=O)CN2CCc3[nH]c4ccc(F)cc4c(=O)c3C2)cc1
i,CC(C)Oc1ccc(C(=O)N2C3CCC2CN(Cc2ccccc2)C3)cc1
i,Cc1ccc(Cn2c(SCC(=O)c3ccccc3)nc3c2c(=O)n(C)c(=O)n3C)cc1
i,CN(C)C(CNC(=O)c1c(F)cccc1F)c1ccc2c(c1)CCO2 (configuration not stated)
i,C=C(C)Cn1c(SCc2cc(=O)[nH][nH]2)nc2sc3c(c2c1=O)CCCC3

Brought forward from above: two entries; new compounds follow.
GIRK2 activ,compound
i,CN(C)C(CNC(=O)c1c(F)cccc1F)c1ccc2c(c1)CCO2 (configuration not stated)
i,C=C(C)Cn1c(SCc2cc(=O)[nH][nH]2)nc2sc3c(c2c1=O)CCCC3
i,O=C(c1cccc(-n2cnnn2)c1)N1CCN(Cc2nc3ccccc3[nH]2)CC1
i,Cc1cc(C)n(CCN2CCN(C(=O)Cn3cnc4ccccc43)CC2)n1
i,O=C(Cn1nc2c(Oc3ccccc3)nccn2c1=O)Nc1cccc(Br)c1
i,O=C(NCCN1CCN(c2ccccc2)CC1)C1(c2ccccc2)CCOCC1
i,CSc1cccc2sc(NC(=O)CCS(=O)(=O)Cc3ccccc3)nc12
i,COc1ccc(C2CC(c3ccccc3NS(C)(=O)=O)=NN2C(=O)c2cccs2)cc1 (configuration not stated)
i,COc1cc(C(=O)Nc2cccc(OC(F)F)c2)on1
i,O=C(Cc1ccc(F)cc1)NCC1CCN(C(=O)Oc2ccccc2)CC1
i,O=C(CCn1cnc2c([nH]c3ccccc32)c1=O)N1CCN(c2ccc(Cl)cc2)CC1
i,CCOC(=O)N1CCN(C(=O)Cc2c(C)noc2C)CC1
i,Cc1nc(C(=O)NCC#CCN2CCc3ccccc3C2)cs1
i,COc1cc2c(cc1OC)CN(C(=O)CSc1nc3[nH]ncc3c(=O)n1-c1ccccc1)CC2

Other records follow:
GIRK2 activ,compound
i,Cc1nc(Nc2ccc(NC(=O)Cc3cccs3)cc2)cc(-n2cccn2)n1
i,O=C(CSc1ccc(F)cc1)NCC1(c2ccc(F)cc2)CC1
i,CCCCc1ccc(-n2c(C)c(C)n3c4c(=O)n(CCN5CCOCC5)c(=O)n(C)c4nc23)cc1
i,CC(C(=O)NCCc1csc(-c2ccccc2)n1)n1nc(-c2ccc(F)cc2)ccc1=O (configuration not stated)
i,COc1ccc(Cl)cc1NC(=O)CN1CCN(S(=O)(=O)c2ccc(F)cc2)CC1
i,COc1cccc(N2CCN(C(=O)CCn3cnc4c([nH]c5ccc(C)cc54)c3=O)CC2)c1
i,CC(=O)Nc1ccc(Cl)c(NC(=O)c2c[nH]c3ccc(F)cc3c2=O)c1
i,CCOc1cc(C)c(C)cc1S(=O)(=O)NCCCn1ccnc1
i,O=C(Cn1cc(S(=O)(=O)N2CCCC2)ccc1=O)NCc1ccccc1Cl
i,COc1cccc(/C=C2\Oc3c(ccc4c3CN(Cc3ccco3)CO4)C2=O)c1OC
i,O=C(NCC1CCN(S(=O)(=O)c2cccnc2)CC1)c1cccc(C(F)(F)F)c1
i,O=S(=O)(NCCNc1cc(Nc2ccccn2)ncn1)c1ccc(-c2ccccc2)cc1

The closing six records of the part before lead into the next:
GIRK2 activ,compound
i,CC(=O)Nc1ccc(Cl)c(NC(=O)c2c[nH]c3ccc(F)cc3c2=O)c1
i,CCOc1cc(C)c(C)cc1S(=O)(=O)NCCCn1ccnc1
i,O=C(Cn1cc(S(=O)(=O)N2CCCC2)ccc1=O)NCc1ccccc1Cl
i,COc1cccc(/C=C2\Oc3c(ccc4c3CN(Cc3ccco3)CO4)C2=O)c1OC
i,O=C(NCC1CCN(S(=O)(=O)c2cccnc2)CC1)c1cccc(C(F)(F)F)c1
i,O=S(=O)(NCCNc1cc(Nc2ccccn2)ncn1)c1ccc(-c2ccccc2)cc1
i,CS(=O)(=O)NCCN1CCN(c2ccccc2F)CC1
i,CSc1cccc(NC(=O)COc2nc(C)nc3ccccc23)c1
i,O=C(Cn1cc(-c2nnc(-c3ccccc3)o2)c2ccccc21)N1CCCc2ccccc21
i,COc1cc(N2CCN(S(=O)(=O)c3ccc(OC)c(C)c3)CC2)nc(OC)n1
i,O=C(CCc1nc2sc3c(c2c(=O)[nH]1)CCCCC3)N1CCN(C2CCCCC2)CC1
i,CC(C)(C)c1ccc(S(=O)(=O)NCC(=O)Nc2ccc3c(c2)OCO3)cc1
i,CC(C)(Oc1ccc(Cl)cc1)C(=O)N1CCN(c2ncnc3c2nnn3-c2ccccc2)CC1
i,COc1ccc(-c2nc3oc4ccccc4c(=O)c3c(=O)n2Cc2ccccc2)cc1
i,CSc1cccc2sc(NC(=O)c3cc(-c4ccco4)on3)nc12
i,O=C(c1cc(Cl)ccc1Cl)N1CCCC(c2nnc(C(F)(F)F)o2)C1 (configuration not stated)
i,COc1cc(NC(=O)C2CCN(c3c(C#N)cnc4ccccc34)CC2)cc(OC)c1OC
i,CCOC(=O)C1=C(C)NC(=O)NC1c1ccccc1Cl (configuration not stated)

Four structures from above, arranged by heavy-atom count, ascending.
GIRK2 activ,compound
i,CS(=O)(=O)NCCN1CCN(c2ccccc2F)CC1
i,COc1ccc(-c2nc3oc4ccccc4c(=O)c3c(=O)n2Cc2ccccc2)cc1
i,O=C(Cn1cc(-c2nnc(-c3ccccc3)o2)c2ccccc21)N1CCCc2ccccc21
i,CC(C)(Oc1ccc(Cl)cc1)C(=O)N1CCN(c2ncnc3c2nnn3-c2ccccc2)CC1

Continuation:
GIRK2 activ,compound
i,COCCn1c(-n2nc(C)cc2C)nc2c1c(=O)n(Cc1ccccc1C)c(=O)n2C
i,COc1ccc(-c2csc(-c3nnn(-c4cc(Cl)c(OC)cc4OC)c3N)n2)cc1
i,Cc1cccc(-c2csc3c(=O)[nH]c(N4CCC(C(=O)NCCCc5ccccc5)CC4)nc23)c1
i,COc1ccccc1-n1ncc2c(C)nnc(SCc3cccnc3)c21
i,O=C(CCCCCCCCc1ccccc1)c1c(O)cccc1O
i,O=C(Nc1nnc(C2CC(=O)N(c3ccccc3)C2)o1)c1nc2ccccc2s1 (configuration not stated)
i,Cc1cc(O)c2c(CN3CCN(Cc4ccccc4)CC3)cc(=O)oc2c1
i,CCOC(=O)N1CCN(S(=O)(=O)CCNC(=O)c2ccc(OC)cc2)CC1
i,Cc1ccc2c(c1)N(Cc1cccc(C#N)c1)N=C(C(=O)N1CCCC1)S2(=O)=O
i,Cc1cn2c3c(=O)n(CC(=O)C(C)(C)C)c(=O)n(C)c3nc2n1C(C)C
i,COc1ccc(-c2ccc(SCc3ccc(N4CCCC4=O)cc3)nn2)cc1OC
i,Cc1nn(-c2ccccc2)c2ncc(C(=O)NCc3ccc4c(c3)OCO4)c(Cl)c12

Following part.
GIRK2 activ,compound
i,Cc1cc2c(=O)n(Cc3ccco3)c(SCC(=O)Nc3cccc(O)c3)nc2s1
i,CCOc1ccc(C(=O)NCc2ccccc2OC)nn1
i,Cc1cc(C)c(NC(=O)Cn2ccn(-c3cccc(Cl)c3)c(=O)c2=O)c(C)c1
i,COc1cc(OC)cc(-c2nnc(NC(=O)c3cccc(OC)c3OC)o2)c1
i,O=C(CSc1ccc(-c2nc(-c3ccccc3)no2)cn1)Nc1ccc(F)cc1F

Screening results as filed in PubChem BioAssay.

An excerpt; count on the stated rates, not on these rows.
